Source: PubChem BioAssay
HNF4A DNA FP = change in binding of human HNF4 alpha to DNA | P41235 | HNF4a-FITC DNA binding, fluorescence polarization, 1 h | activity change, % at 10 µM | 360,000 tested, 0.3% active | AID 1224865; in the data active = activity change above about 30%, passing the limit was not always enough;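 also: controls were the assay level and a saturating level of protein; the project sought stronger binding though the title names inhibitors; some compounds called inactive have numbers as strong as hits; positive values seem to mean higher polarization but the record does not say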
Target sequence (P41235 whole entry, looked up): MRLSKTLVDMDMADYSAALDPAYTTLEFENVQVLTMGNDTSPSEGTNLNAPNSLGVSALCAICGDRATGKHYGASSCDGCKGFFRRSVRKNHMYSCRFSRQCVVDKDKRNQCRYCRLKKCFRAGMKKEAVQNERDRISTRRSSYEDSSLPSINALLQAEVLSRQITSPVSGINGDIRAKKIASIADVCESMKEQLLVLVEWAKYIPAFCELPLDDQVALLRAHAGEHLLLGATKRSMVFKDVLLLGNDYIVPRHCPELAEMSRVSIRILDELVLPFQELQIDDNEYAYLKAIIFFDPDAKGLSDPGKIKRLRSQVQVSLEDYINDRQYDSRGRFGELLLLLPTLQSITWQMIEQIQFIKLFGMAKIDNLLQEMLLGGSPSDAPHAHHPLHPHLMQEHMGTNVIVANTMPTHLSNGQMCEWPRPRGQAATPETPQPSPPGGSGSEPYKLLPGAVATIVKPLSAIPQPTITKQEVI
FGF22 binding = binders of recombinant human FGF22 by thermal shift; AID 651658; calls only at 9.99 µM; Q9HCT0; SYPRO orange fluorescence; percent of sucrose octasulfate shift, DMSO zero; 340,000 tested, 1.5% active;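 active = melting point raised past a set limit in the mean and every replicate; inconclusive = no clear call; three in four hits are not shown here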
E coli growth = inhibitors of Escherichia coli growth | OD600 absorbance (test concentration not listed) | AID 1053175 | OD600, 23 h; stronger effect = lower value | 330,000 tested, 0.21% active;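 active = OD600 absorbance below the run mean of sample wells minus 3.6 SD, in any replicate, cut at about 0.56 in these data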;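 also: stock transfer was 300 nL into about 60 µL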
rRNA inh HTS = selective bacterial rRNA inhibition in E. coli. E. coli WT GFP vs humanized-ribosome RFP mutants, fluorescence, 24 h; stronger effect = lower value; DMSO median 0, no signal -100. 350,000 tested, 1.6% active. AID 720706. GFP signal change (wild-type ribosome), % (concentration not given with the values);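 active = significant combined selectivity score with lowered wild-type GFP, culture density cut under 30%, mutant RFP and density less affected; inactive = any of these conditions unmet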; also: one replicate is shown; some compounds called inactive have numbers as strong as hits
ALR inh = blocks human ALR sulfhydryl oxidase activity. P55789. purified ALR, DTT oxidation, H2O2 HRP-luminol luminescence. inhibition, % (test concentration not listed). 290,000 tested, 3.8% active. AID 485317;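 active = mean and each replicate at 75% or more; inconclusive = only one of the two met; inactive = neither met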;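 also: stock transfer was 7.5 nL into about 7.5 µL; 0% = neutral wells and 100% = wells with inactivated enzyme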
Target sequence (P55789 whole entry, looked up): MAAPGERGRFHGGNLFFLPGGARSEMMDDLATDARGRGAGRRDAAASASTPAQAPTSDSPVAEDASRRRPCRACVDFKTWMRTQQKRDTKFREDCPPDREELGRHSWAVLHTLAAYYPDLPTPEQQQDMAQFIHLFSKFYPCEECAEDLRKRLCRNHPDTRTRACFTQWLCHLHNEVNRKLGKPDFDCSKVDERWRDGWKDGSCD
UCH37 DUB inh = blocks the human deubiquitinase UCH37 | Q9Y5K5 | purified proteasome/UCH37, Ub-AMC cleavage fluorescence | inhibition, % (no concentration beside the values) | 330,000 tested, 0.33% active | AID 588478;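 active = mean of two replicates above 20%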;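 also: 0% = compound-free wells with enzyme and 100% = wells lacking proteasome; stock transfer was 100 nL into about 20 µL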
Target sequence (Q9Y5K5 whole entry, looked up): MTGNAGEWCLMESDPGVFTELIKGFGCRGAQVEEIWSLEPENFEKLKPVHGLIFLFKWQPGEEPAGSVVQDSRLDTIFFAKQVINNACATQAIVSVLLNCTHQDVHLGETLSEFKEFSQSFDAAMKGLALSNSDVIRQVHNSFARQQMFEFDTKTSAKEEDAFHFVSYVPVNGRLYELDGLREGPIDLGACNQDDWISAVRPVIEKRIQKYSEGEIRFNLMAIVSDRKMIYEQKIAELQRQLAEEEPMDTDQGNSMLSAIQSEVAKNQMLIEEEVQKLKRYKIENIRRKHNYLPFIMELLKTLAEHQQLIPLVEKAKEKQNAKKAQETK
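Signal – fluorescence, ex 355 nm, em 460 nm · System – Proteasome-bound UCH37 · Input – 0.15 nM proteasome as dispensed · Timing – 30 min preincubation with enzyme, 25 min cleavage at room temperature · Read-out basis – percent inhibition of cleavage signal versus uninhibited and no-proteasome wells · Medium – Tris-HCl pH 7.4 with ATP-MgCl2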
Beta2AR agonist = human beta-2 adrenergic receptor agonism by FAP | response, % (no concentration beside the values) | Am2.2-beta2AR cells, FAP receptor internalization, flow cytometry; reference of the scale not given here | AID 504454 | P07550 | 340,000 tested, 0.43% active;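 active = response above a set limit, near 3 SD of response in nonfluorescent compounds, cut at about 42% in these data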;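 also: stock transfer was 100 nL into about 11 µL; a reference agonist was the positive control; negative values mostly stem from fluorescent compounds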
rRNA inh HTS OD600 = also measured in rRNA inh HTS; calls as there; OD600 change, %; measured here: OD600 growth;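 optical density of the mix in the first replicate; 0 = DMSO median and -100 = no signal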
rRNA inh HTS RFP = further read-out of rRNA inh HTS, marked with its call; RFP signal change, %; measured here: RFP humanized mutant strains;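 first replicate; 0 = DMSO median and -100 = no signal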
The depositor's hits bear a star; i = inactive; u = inconclusive; x = not tested or not shown. Only part of the results is shown; the hit share may differ from the screen's.

SMILES	HNF4A DNA FP	FGF22 binding	E coli growth	rRNA inh HTS	rRNA inh HTS OD600	rRNA inh HTS RFP	ALR inh	UCH37 DUB inh	Beta2AR agonist
COc1ccc(CNC(=O)COC(=O)c2cc(-c3ccc(Cl)s3)nc3ccccc23)cc1	6.0	x	0.74	x	x	x	-16	-12	-6
CCOc1ccc(C2C(=O)N(C3CCCCC3)CC(=O)N2CC2CCCO2)cc1OC (stereo unspecified)	1.4	i	0.66	13	10	-4.2	-4	3.7	0
CCOC(=O)C1=C(C)NC(=O)NC1c1ccc(Cl)cc1Cl (stereo unspecified)	0.6	x	0.74	x	x	x	-2	3.1	-2
Cc1ccc(SCC(=O)NC(C)(C)C)cc1	2.5	x	0.7	x	x	x	-2	0.2	1
CCc1cc(C(=O)N(C)CC(=O)N(CC(C)C)c2c(N)n(CC(C)C)c(=O)[nH]c2=O)sc1C	-4.6	x	0.7	x	x	x	3	2.0	-9
O=C(CN1C(=O)NC(c2ccc(F)cc2)C1=O)Nc1ccc2c(c1)OCCO2 (stereo unspecified)	4.8	i	0.69	0	4	-2.4	7	3.1	3
CCCn1c(SCC(=O)N2CCc3ccccc3C2)nc(O)cc1=O	2.9	i	0.72	11	6	25	72	13	4
O=C(CCC(=O)Nc1ccc(F)cc1)N/N=C/c1ccccc1O	-0.2	i	x	14	21	2.5	1	x	-11
CC1=NN(c2nc(-c3ccc(C#N)cc3)cs2)C(=O)C1	x	i	0.67	6	2	-4.0	-6	2.7	x
CCCCN1C(=O)C2NN=C(C(=O)OC)C2C1=O (stereo unspecified)	-1.0	x	0.7	x	x	x	7	3.3	-3
Cc1ccc(N/C=C/C(=O)c2ccccc2)cc1C	6.2	x	0.68	x	x	x	x	-5.4	-6
COc1ccc(NS(=O)(=O)c2ccc(S(=O)(=O)N(C)C)cc2)cc1S(N)(=O)=O	2.6	i	0.69	14	7	-2.7	-1	4.8	-7
COCCNC(=O)Cn1ncc2ccsc2c1=O	-1.2	i	0.78	6	10	-3.4	-18	1.1	3
O=C(NCCc1cn2ccccc2n1)c1ccccc1F	-1.2	x	0.68	5	10	-4.4	0	-1.1	-1
C/C(Cn1nc([N+](=O)[O-])cc1C)=N\NC(=O)COc1c(Cl)cc(Cl)cc1Cl	3.9	x	x	x	x	x	4	x	-4

Reformatted: 6 of the compounds above
mol,HNF4A DNA FP,FGF22 binding,E coli growth,rRNA inh HTS,rRNA inh HTS OD600,rRNA inh HTS RFP,ALR inh,UCH37 DUB inh,Beta2AR agonist
CCOc1ccc(C2C(=O)N(C3CCCCC3)CC(=O)N2CC2CCCO2)cc1OC (stereo unspecified),1.4,i,0.66,13,10,-4.2,-4,3.7,0
CC1=NN(c2nc(-c3ccc(C#N)cc3)cs2)C(=O)C1,x,i,0.67,6,2,-4.0,-6,2.7,x
O=C(NCCc1cn2ccccc2n1)c1ccccc1F,-1.2,x,0.68,5,10,-4.4,0,-1.1,-1
Cc1ccc(SCC(=O)NC(C)(C)C)cc1,2.5,x,0.7,x,x,x,-2,0.2,1
CCCCN1C(=O)C2NN=C(C(=O)OC)C2C1=O (stereo unspecified),-1.0,x,0.7,x,x,x,7,3.3,-3
O=C(CN1C(=O)NC(c2ccc(F)cc2)C1=O)Nc1ccc2c(c1)OCCO2 (stereo unspecified),4.8,i,0.69,0,4,-2.4,7,3.1,3

Later entries:
SMILES	HNF4A DNA FP	FGF22 binding	E coli growth	rRNA inh HTS	rRNA inh HTS OD600	rRNA inh HTS RFP	ALR inh	UCH37 DUB inh	Beta2AR agonist
Cc1ccc(-n2c(=O)cc(N3CCN(Cc4ccccc4)CC3)[nH]c2=O)cc1	-0.1	i	0.72	13	10	4.6	x	2.9	-6
CSc1nc(O)c(Nc2cccc(Cl)c2)c(=O)[nH]1	-1.4	i	x	8	12	0.3	89*	x	-3
CC(C)c1cccc(-c2ccc3c(c2)S(=O)(=O)c2cccc(C(=O)NCc4ccccc4)c2C3=O)c1	2.2	i	0.72	3	6	-1.0	1	1.4	5
COC(=O)C=CC(=NNc1ccccc1)c1ccccc1	-1.6	i	0.68	-31	-28	-10	x	4.6	1
Cc1ccc(S(=O)(=O)CCC(=O)OCC(=O)NC(C)c2ccc(F)cc2)cc1 (stereo unspecified)	3.0	i	0.63	2	-5	-0.8	-1	0.3	0
NC(=O)C1CCN(C2=C(Cl)C(=O)c3ccccc3C2=O)CC1	1.1	x	0.71	x	x	x	30	82*	46*
O=C(COC(=O)c1ccccc1)NC12CC3CC(CC(C3)C1)C2	1.4	i	0.7	19	2	1.2	-2	-2.7	-4
CCCCCNC(=O)C(C1CC1)n1c(=O)c(-c2cc3ccccc3[nH]2)nc2ccccc21 (stereo unspecified)	-0.1	i	x	12	6	1.7	x	x	x
CC(C)(C)OC(=O)N[C@@H](Cc1ccccc1)C(=O)N[C@@H](CO)[C@H](O)[C@@H]1C[C@@H]1C(=O)NC1CC1	-1.6	i	x	12	9	6.4	5	4.2	-2
CN(C)S(=O)(=O)c1cccc(C(=O)N(Cc2ccc(F)cc2)Cc2ccco2)c1	-0.6	x	0.77	x	x	x	-7	0.5	-2
COc1ccc(C(c2nnnn2CCc2ccccc2)N2CCN(C)CC2)cc1OC (stereo unspecified)	0.7	x	0.7	x	x	x	x	1.3	-8
O=C(CN(CC1CCCO1)C(=O)CNS(=O)(=O)c1ccc(Cl)cc1)NCc1ccccc1 (stereo unspecified)	-2.5	i	0.67	-4	-5	-2.5	x	5.4	-8
O=C(Nc1c2c(nn1-c1ccc(F)cc1)CS(=O)C2)c1ccco1 (stereo unspecified)	-1.7	i	0.7	11	14	-0.6	-21	6.0	-3
O=C1CCCN1CN(C(=O)c1ccccc1)c1ccc(F)cc1	-3.8	x	0.64	x	x	x	-2	0.8	-3
O=C(/C=C/c1cn(-c2ccccc2)nc1-c1cccnc1)c1ccco1	0.3	i	0.71	-5	2	54	x	2.7	81*
O=C(Nc1ccccc1F)c1ccc(CNS(=O)(=O)c2cccc(C(F)(F)F)c2)cc1	-0.8	x	0.79	x	x	x	-7	2.7	-3
COc1ccc(CN(C)C(C)C(=O)Nc2ccc([N+](=O)[O-])cc2Cl)cc1OC (stereo unspecified)	-2.5	x	0.68	x	x	x	x	1.1	-7
CNC(=S)Nc1cccc2[nH]ncc12	-0.3	x	0.74	x	x	x	-7	2.5	4
CCn1c(=O)c(=O)n(CC)c2cc(S(=O)(=O)N3CCc4ccccc43)ccc21	-1.5	i	0.66	4	2	-2.9	-16	2.6	2
Cc1cccc(C(=O)OC2CCOC2=O)c1C (stereo unspecified)	5.8	i	0.64	x	x	x	3	3.0	9
Cc1ccc(-c2nnc(N3CCOCC3)c3ccccc23)cc1S(=O)(=O)N(C)C	3.3	i	0.69	4	0	2.0	x	-1.3	-1
O=C(Nc1ccc(S(=O)(=O)NC2=NCCCCC2)cc1)C1COc2ccccc2O1 (stereo unspecified)	0.1	i	0.7	2	-11	6.7	1	4.8	3
O=C(Nc1ccc2c(c1)OCO2)C(=O)c1c[nH]c2ccccc12	9.0	i	0.69	8	3	-0.5	1	7.7	-6
CCCC(=O)Nc1ccc2c(c1)nc(CN1CCN(C(=O)OCC)CC1)n2CC	-2.2	i	0.7	0	12	2.0	x	4.3	-16
O=C(CSc1nnc2c(Cl)cc(Cl)cn12)NC1CCS(=O)(=O)C1 (stereo unspecified)	-0.6	x	0.75	x	x	x	35	-2.9	-1
O=C(Nc1ccc(Cc2ccncc2)cc1)C1CCC(N2C(=O)C3CCCCC3C2=O)CC1 (stereo unspecified)	-1.1	i	0.68	-8	-8	-1.1	-22	-0.5	-9
CC(OC(=O)CNC(=O)c1ccccc1)C(=O)Nc1ccc(S(=O)(=O)N2CCOCC2)cc1 (stereo unspecified)	1.6	i	0.63	-5	-4	4.4	x	-1.5	2
O=c1c(-c2ccccc2Cl)c[nH]n1-c1ccccc1	5.7	i	0.66	-3	4	4.4	x	2.2	-4
c1ccc(CCC2CCCCN2Cc2cn[nH]c2-c2cc3ccccc3o2)nc1 (stereo unspecified)	1.3	i	0.68	0	-5	1.7	-24	1.1	2
CCOc1ccc(-c2cc(C(=O)N3CCC(C)CC3)c3ccccc3n2)cc1	-3.4	i	0.68	-3	-5	2.0	x	-232	4
CN1C(=O)/C(=N/OC(=O)c2ccccc2Br)c2ccccc21	0.6	i	x	13	8	1.2	u	x	-5
Cc1ccc(-c2csc(C3=C(O)CN(NC(=O)c4ccc([N+](=O)[O-])cc4)C3=N)n2)cc1	-1.5	i	0.68	8	10	0.3	10	2.7	-2
CC(=O)Nc1ccc(S(=O)(=O)N2CCN(C(=O)CCC3CCCC3)CC2)cc1	-1.3	x	0.71	x	x	x	-10	-0.6	-14
N#C/C(C(=O)N1CCOCC1)=C1/SC(Cc2ccccc2Cl)C(=O)N1c1ccccc1 (stereo unspecified)	1.2	i	0.66	-2	2	-1.6	15	1.7	0
O=c1[nH]c(C2CCN(S(=O)(=O)c3ccccc3F)CC2)nc2c1nnn2Cc1ccc(OC(F)(F)F)cc1	-1.8	i	0.74	-4	4	-2.7	-8	0.4	-5
CCOC(=O)[C@]12CCC=C1N(Cc1ccco1)C(=O)[C@H](CC(=O)NCCCOC)C2	0.1	i	x	8	21	-2.6	x	x	x
COC(=O)c1sc(=S)n(-c2ccccc2)c1N	1.5	x	0.75	x	x	x	10	9.2	-4
COc1ccc(S(=O)(=O)N(n2c(C)nnc2-n2nc(C)cc2C)S(=O)(=O)c2ccc(OC)cc2)cc1	0.2	x	0.73	x	x	x	33	0.4	10
Cc1ccc(NC(=O)c2c(C(F)(F)F)nn(C)c2SCc2ccc(Cl)cc2)cc1C	0.1	x	0.72	x	x	x	-7	2.2	10
O=C(c1ccc(S(=O)(=O)N2CCOCC2)cc1)N(Cc1ccco1)Cc1cccs1	2.9	x	0.66	x	x	x	-5	1.9	-2
O=c1[nH]c2ccccc2n1Cc1ccc(Cl)cc1	-2.7	x	0.66	x	x	x	-5	-0.4	-6
CC[C@]12c3[nH]c4cc(CCC(=O)N(C)C)ccc4c3CCN1C(=O)[C@@H](CC(=O)NCCN1CCOCC1)C[C@@H]2C(=O)N1CCN(C(=O)C2CC2)CC1	-1.0	i	0.7	x	x	x	x	1.8	-1
COc1ccc(Cl)cc1N(CC(=O)Nc1ccc2c(c1)OCCO2)S(C)(=O)=O	3.4	x	0.73	x	x	x	-39	3.5	0
O=C(c1ccccc1)N1CC(COc2ccccc2)OC(c2ccco2)O1 (stereo unspecified)	0.7	x	0.79	x	x	x	-14	3.6	-9
CC(C)C[C@@H]1COc2cc(N3CCC[C@@H]3CO)ccc2S(=O)(=O)N1	-1.5	i	x	-12	-1	2.1	x	x	x
Cc1nn(Cc2ccccc2)c(=O)c2nn(-c3ccc(Cl)cc3)c(C)c12	0.3	x	0.61	x	x	x	-52	0.1	-1
Cc1ccc2c(c1)N(C(C)C(=O)NCc1ccccn1)C(=O)CO2 (stereo unspecified)	0.6	i	0.7	3	-4	-5.3	x	4.0	-1
COc1cc2c(=O)n(Cc3ccccc3)c(=O)n(CC(=O)NCc3ccco3)c2cc1OC	3.4	x	0.76	x	x	x	x	-5.0	32
